Vaccinia inh: blocks a specific stage of Vaccinia orthopoxvirus infection, primary screen, cell-based, single point. Vaccinia-infected cells, mCherry/Venus stage reporter fluorescence; active compounds read low; some inactives read as strong as hits. activity change (mCherry), % (concentration not given with the values). 0.01% of 89,000 active;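 active = mCherry past -33% and 40 or more points under the early reporter, replicates agreeing; inconclusive = past -33% without that gap or agreement; tested in A549 cells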;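 note: scaled between vehicle wells and reference inhibitor wells; 23 nL library stock went into each well; one replicate is shown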
Vaccinia inh Venus: further read-out of Vaccinia inh, marked with its call; activity change (Venus), %; measured here: Venus reporter, other viral stage;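 negative = less Venus signal; first of two replicates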
Numbers without * were called inactive; ? = inconclusive; . = not tested or not shown.

SMILES | Vaccinia inh | Vaccinia inh Venus
COc1ccc(S(=O)(=O)Nc2ccc3c(c2)CC(=O)N([C@@H](C)CO)C[C@@H](C)[C@H](CN(C)S(=O)(=O)c2cn(C)cn2)O3)cc1 | 10 | 2
Cc1cccc(-c2ccc([C@@H]3[C@H]4CN(C(=O)c5cccnc5)CCCCN4[C@H]3CO)cc2)c1 | -22 | -17
C[C@H](CO)N1C[C@H](C)[C@@H](CN(C)S(=O)(=O)c2cn(C)cn2)Oc2ccc(NC(=O)c3ccncc3)cc2CC1=O | 18 | 17
C[C@@H]1CN([C@@H](C)CO)C(=O)c2cc(C#Cc3ccc(F)cc3)cnc2O[C@@H]1CN(C)S(C)(=O)=O | -11 | -6
Cc1ccc(S(=O)(=O)NCC[C@H]2CC[C@@H](NC(=O)c3cnccn3)[C@H](CO)O2)cc1 | -17 | -8
CO[C@H]1CN(C)C(=O)c2cc(NC(=O)NC(C)C)ccc2OC[C@@H](C)N(Cc2ccccc2)C[C@H]1C | -5 | 0
Cc1ccc(S(=O)(=O)N(C)C[C@H]2Oc3ccc(NS(=O)(=O)c4ccccc4)cc3C(=O)N([C@@H](C)CO)C[C@H]2C)cc1 | -20 | -24
C[C@@H]1CCCCO[C@H](CN(C)C(=O)c2ccccc2)[C@@H](C)CN([C@H](C)CO)C(=O)c2cc(NC(=O)C3CCCCC3)ccc2O1 | 30 | 16
CCS(=O)(=O)Nc1ccc2c(c1)C(=O)N(C)C[C@H](OC)[C@@H](C)CN(CC1CCCCC1)[C@@H](C)CO2 | -32 | -23
CN(C)CC#Cc1ccc([C@H]2[C@@H](CO)N3CCCCN(C(=O)Nc4cc(F)ccc4F)C[C@H]23)cc1 | -7 | -7
N#C[C@@H]1[C@@H](c2ccc(C3=CCCCC3)cc2)[C@@H](CO)N1C(=O)NC1CCCCC1 | -24 | -17
CCC(=O)Nc1ccc2c(c1)C(=O)N(C)C[C@@H](OC)[C@H](C)CN(C(=O)NC1CCCCC1)[C@H](C)CO2 | 5 | 3
C[C@H]1CN([C@@H](C)CO)C(=O)c2cc(NC(=O)Nc3ccc(C(F)(F)F)cc3)ccc2O[C@H]1CN(C)Cc1ccc(Cl)c(Cl)c1 | ? | .
C[C@@H]1CN([C@@H](C)CO)S(=O)(=O)c2ccc(C#CC3CC3)cc2O[C@H]1CN(C)C(=O)CC1CC1 | -19 | -16
C[C@@H]1CN([C@@H](C)CO)C(=O)c2cccc(NC(=O)C3CC3)c2O[C@@H]1CN(C)C | 1 | 6
CCC(=O)Nc1ccc2c(c1)C(=O)N(C)C[C@@H](OC)[C@@H](C)CN(C(=O)c1ccccn1)[C@H](C)CO2 | -5 | -4
C[C@@H]1CN([C@H](C)CO)C(=O)Cc2cc(NC(=O)Nc3ccccc3)ccc2O[C@H]1CN(C)C(=O)Nc1ccccc1 | -2 | -6
C[C@H](CO)N1C[C@H](C)[C@H](CN(C)Cc2ccncc2)Oc2cc(C#CC(C)(C)O)ccc2S1(=O)=O | 14 | 7
Cc1noc(C)c1NC(=O)N(C)C[C@@H]1Oc2ccc(NC(=O)c3ccncc3)cc2C(=O)N([C@H](C)CO)C[C@@H]1C | 19 | 17
N#C[C@H]1[C@@H](c2ccccc2C2=CCCCC2)[C@@H](CO)N1C(=O)C1CCOCC1 | 11 | 0
C[C@@H]1CN([C@H](C)CO)C(=O)Cc2cc(NS(=O)(=O)c3cn(C)cn3)ccc2O[C@H]1CN(C)C | 17 | 11
Cc1cccc(-c2ccc([C@H]3[C@@H](CO)N4CCCCN(Cc5ccncc5)C[C@H]34)cc2)c1 | ? | .
C[C@@H]1CN([C@H](C)CO)C(=O)Cc2cc(NS(=O)(=O)c3ccc(F)cc3)ccc2O[C@H]1CN(C)C(=O)Nc1ccccc1 | 10 | 9
C[C@@H](NC(=O)C[C@@H]1CC[C@H]2[C@@H](COC[C@H](O)CN2C(=O)Nc2cccc(Cl)c2)O1)c1ccccc1 | -14 | -3
CC=Cc1ccc2n(c1=O)C[C@H]1[C@H](CO)[C@@H](C(=O)NCC)[C@@H]2N1C(=O)c1ccccc1 (mixture of isomers) | 9 | 8
(continued)
SMILES | Vaccinia inh | Vaccinia inh Venus
Cc1ccc(S(=O)(=O)Nc2ccc3c(c2)C(=O)N([C@H](C)CO)C[C@H](C)[C@H](CN(C)S(=O)(=O)c2cn(C)cn2)OCCCC[C@@H](C)O3)cc1 | 2 | 6
COc1ccc(-c2ccc([C@H]3[C@H](C#N)N(C(=O)c4cccc(F)c4)[C@H]3CO)cc2)cc1 | -6 | -3
N#Cc1ccc(-c2ccc(C3[C@@H]4CN(C(=O)C5CCOCC5)C[C@H]3N4)cc2)cc1 (stereo partly drawn) | ? | -3
CNC[C@@H]1Oc2ccc(NC(=O)Cc3cn(C)c4ccccc34)cc2C(=O)N([C@H](C)CO)C[C@@H]1C | 11 | 18
Cc1noc(C)c1NC(=O)N(C)C[C@H]1OCCCC[C@H](C)Oc2ccc(NS(=O)(=O)c3c(C)noc3C)cc2C(=O)N([C@H](C)CO)C[C@@H]1C | 18 | 8
CN(C)C(=O)[C@H]1[C@H](CO)[C@H]2Cn3c(ccc(C4=CCCC4)c3=O)[C@H]2N1Cc1ccccn1 | 6 | 10
C[C@H](CO)N1C[C@H](C)[C@H](CN(C)CC2CC2)OCCCC[C@H](C)Oc2ccc(NS(=O)(=O)c3ccc(Cl)cc3)cc2C1=O | ? | .
Cc1ccc(S(=O)(=O)Nc2ccc3c(c2)C(=O)N([C@H](C)CO)C[C@H](C)[C@@H](CN(C)S(=O)(=O)c2ccc(C)cc2)OCCCC[C@@H](C)O3)cc1 | 21 | 10
C[C@@H]1CN([C@H](C)CO)S(=O)(=O)c2ccc(Br)cc2O[C@H]1CN(C)C(=O)Nc1cccc(F)c1 | -5 | 3
CS(=O)(=O)N1CC(=O)N2[C@@H](CO)[C@H](c3ccc(C#CC4CCCC4)cc3)[C@@H]2C1 | 24 | 7
CCCNC(=O)[C@H]1[C@H](CO)[C@H]2Cn3c(ccc(-c4ccccc4)c3=O)[C@H]2N1CC1CC1 | 0 | 0
Cc1noc(C)c1NC(=O)N(C)C[C@@H]1Oc2ccc(NC(=O)CCC(F)(F)F)cc2CC(=O)N([C@H](C)CO)C[C@H]1C | 4 | 1
O=C(c1ccncc1)N1CCCCN2[C@H](CO)[C@@H](c3ccc(-c4ccccc4)cc3)[C@@H]2C1 | -6 | -7
C[C@@H]1CN([C@@H](C)CO)C(=O)c2cc(NC(=O)c3ccccc3)ccc2O[C@@H](C)CCCCO[C@@H]1CN(C)C(=O)c1ccncc1 | 14 | 3
CNC[C@H]1Oc2c(NS(=O)(=O)c3ccccc3)cccc2C(=O)N([C@@H](C)CO)C[C@@H]1C | 9 | 2
C[C@@H]1CN([C@@H](C)CO)C(=O)c2cccc(NC(=O)Nc3ccc4c(c3)OCO4)c2O[C@H]1CN(C)C | 11 | 2
O=C(Cc1ccccc1)N1CC(=O)N2[C@H](CO)[C@H](c3ccc(Br)cc3)[C@H]2C1 | 18 | 4
COc1ccc(C(=O)N2C[C@@H]3[C@H](c4ccccc42)[C@@H](CO)N3Cc2ccc3c(c2)OCO3)cc1 | -8 | -6
Cc1noc(C)c1NC(=O)Nc1ccc2c(c1)C(=O)N([C@@H](C)CO)C[C@@H](C)[C@H](CN(C)C(=O)Nc1cccc3ccccc13)O2 | 8 | 8
C[C@H](CO)N1C[C@H](C)[C@@H](CN(C)C)Oc2ccc(NC(=O)CCCCCC(=O)Nc3ccccc3N)cc2C1=O | 31 | 11
CCCC#Cc1ccc([C@H]2[C@@H](C#N)N(C(=O)C3CCC3)[C@@H]2CO)cc1 | -28 | -20
O=C(Nc1ccc(F)cc1)N1CCCCN2[C@H](CO)[C@H](c3ccc(C#CC4CC4)cc3)[C@@H]2C1 | ? | .
Cc1noc(C)c1NC(=O)Nc1ccc2c(c1)C(=O)N([C@@H](C)CO)C[C@@H](C)[C@@H](CN(C)C)OCCCC[C@@H](C)O2 | 5 | 5
C[C@H](CO)N1C[C@H](C)[C@@H](CN(C)Cc2ccc(Oc3ccccc3)cc2)Oc2ccc(NS(C)(=O)=O)cc2C1=O | -5 | 0
O=C(C[C@H]1C[C@@H]2c3cc(NC(=O)NC4CCCC4)ccc3O[C@@H]2[C@H](CO)O1)NCc1cccnc1 | 0 | -1

As entered above.
O=C(c1ccncc1)N1CCCCN2[C@H](CO)[C@@H](c3ccc(-c4ccccc4)cc3)[C@@H]2C1 in Vaccinia inh = -6
C[C@H](CO)N1C[C@H](C)[C@@H](CN(C)Cc2ccc(Oc3ccccc3)cc2)Oc2ccc(NS(C)(=O)=O)cc2C1=O in Vaccinia inh Venus = 0

Other compounds.
SMILES | Vaccinia inh | Vaccinia inh Venus
Cc1ccccc1S(=O)(=O)NCC[C@H]1CC[C@H](NC(=O)C2CCC2)[C@H](CO)O1 | -16 | -9
CO[C@H]1CN(C)C(=O)c2cc(NC(=O)NC(C)C)ccc2OC[C@@H](C)N(C(=O)NC(C)C)C[C@@H]1C | 0 | -2
COc1ccc(CN(C)C[C@@H]2Oc3ccc(NC(=O)C4CCCCC4)cc3CC(=O)N([C@@H](C)CO)C[C@@H]2C)cc1 | -7 | 10
CN(C)C(=O)c1ccc(-c2ccc(C3[C@@H]4CN(Cc5nccs5)C[C@H]3N4)cc2)cc1 (stereo partly drawn) | ? | -7
Cc1ccc(S(=O)(=O)Nc2ccc3c(c2)C(=O)N([C@H](C)CO)C[C@H](C)[C@H](CN(C)S(C)(=O)=O)OCCCC[C@@H](C)O3)cc1 | 21 | 14
C[C@@H]1CN([C@H](C)CO)C(=O)Cc2cc(N(C)C)ccc2O[C@H]1CN(C)Cc1ccncc1 | 11 | 8
O=C(c1cnccn1)N1CC(=O)N2[C@H](CO)[C@H](c3ccc(C#CC4CC4)cc3)[C@@H]2C1 | 10 | 6
CO[C@@H]1CN(C)C(=O)c2ccc(NC(=O)C3CCC3)cc2OC[C@H](C)N(Cc2ccccn2)C[C@H]1C | 3 | 3
CN(C)CCCNC(=O)C[C@@H]1C=C[C@H](NS(=O)(=O)c2ccccc2)[C@@H](CO)O1 | 10 | 10
C/C=C/c1ccc([C@H]2[C@@H](CO)N(C(C)=O)C23CN(S(C)(=O)=O)C3)cc1 | 12 | 14
COc1ccc(CN(C)C[C@H]2Oc3ccc(NC(=O)Cc4cn(C)c5ccccc45)cc3C(=O)N([C@@H](C)CO)C[C@@H]2C)cc1 | 8 | 2
C[C@@H]1CN([C@@H](C)CO)C(=O)c2cc(NS(=O)(=O)c3cn(C)cn3)ccc2O[C@H]1CN(C)CC1CCCCC1 | -6 | 1
C[C@H](CO)N1C[C@H](C)[C@@H](CN(C)S(C)(=O)=O)OCCCC[C@H](C)Oc2ccc(NC(=O)Nc3ccc(C(F)(F)F)cc3)cc2C1=O | 42 | 17
CCCN(C)C[C@H]1OCCCC[C@@H](C)Oc2ccc(NC(=O)CCCN(C)C)cc2C(=O)N([C@H](C)CO)C[C@H]1C | 14 | 5
COc1ccc(NC(=O)Nc2ccc3c(c2)CC(=O)N([C@H](C)CO)C[C@@H](C)[C@H](CN(C)C)O3)cc1 | 15 | 9
O=C(Nc1cc(F)ccc1F)N1CCCCN2[C@H](C1)[C@@H](c1ccc(-c3cncnc3)cc1)[C@@H]2CO | 22 | 4
O=C(C[C@H]1C=C[C@H](NC(=O)CN2CCOCC2)[C@H](CO)O1)NCCc1ccccc1 | 8 | 4
COCC(=O)Nc1ccc2c(c1)OC[C@@H](C)N(Cc1ccccc1OC)C[C@H](C)[C@H](OC)CN(C)C2=O | -19 | -15
C[C@@H]1CN([C@@H](C)CO)S(=O)(=O)c2ccc(C3=CCCCC3)cc2O[C@@H]1CN(C)S(C)(=O)=O | -27 | -15
O=C(Nc1cccc(F)c1)N1CCCCN2[C@H](CO)[C@H](c3ccc(C#Cc4cccnc4)cc3)[C@H]2C1 | ? | .
Cc1noc(C)c1S(=O)(=O)N(C)C[C@H]1OCCCC[C@H](C)Oc2ccc(NC(=O)CCC(F)(F)F)cc2C(=O)N([C@H](C)CO)C[C@H]1C | -1 | -2
Cc1cccc(-c2ccc([C@H]3[C@@H](CO)N4CCCCN(Cc5cncnc5)C[C@H]34)cc2)c1 | 4 | -22
C[C@@H]1CCCCO[C@H](CN(C)C(=O)NC2CCCCC2)[C@H](C)CN([C@H](C)CO)C(=O)c2cc(NS(=O)(=O)c3cn(C)cn3)ccc2O1 | 19 | 14
CCNC(=O)C[C@@H]1C=C[C@@H](NC(=O)C2CCOCC2)[C@@H](CO)O1 | 2 | 5
O=C(C[C@@H]1CC[C@H]2[C@@H](COC[C@@H](O)CN2CCc2ccccc2)O1)NCc1ccc(F)cc1 | -10 | -7
O=C(Cc1ccccn1)N1CCCCN2[C@H](CO)[C@H](c3ccc(C#Cc4ccccc4)cc3)[C@@H]2C1 | -4 | -6

A different layout for 6 compounds above:
| SMILES | Vaccinia inh | Vaccinia inh Venus |
| --- | --- | --- |
| O=C(Nc1cc(F)ccc1F)N1CCCCN2[C@H](C1)[C@@H](c1ccc(-c3cncnc3)cc1)[C@@H]2CO | 22 | 4 |
| O=C(C[C@H]1C=C[C@H](NC(=O)CN2CCOCC2)[C@H](CO)O1)NCCc1ccccc1 | 8 | 4 |
| COCC(=O)Nc1ccc2c(c1)OC[C@@H](C)N(Cc1ccccc1OC)C[C@H](C)[C@H](OC)CN(C)C2=O | -19 | -15 |
| C[C@@H]1CN([C@@H](C)CO)S(=O)(=O)c2ccc(C3=CCCCC3)cc2O[C@@H]1CN(C)S(C)(=O)=O | -27 | -15 |
| O=C(Nc1cccc(F)c1)N1CCCCN2[C@H](CO)[C@H](c3ccc(C#Cc4cccnc4)cc3)[C@H]2C1 | ? | . |
| Cc1noc(C)c1S(=O)(=O)N(C)C[C@H]1OCCCC[C@H](C)Oc2ccc(NC(=O)CCC(F)(F)F)cc2C(=O)N([C@H](C)CO)C[C@H]1C | -1 | -2 |

Compound activity: PubChem, Broad Institute

An excerpt; count on the stated rates, not on these rows.
